Source: PubChem (National Center for Advancing Translational Sciences (NCATS))
TRPML1 ag = activates the human TRPML1 channel; TRPML1-expressing cells, Ca2+ dye fluorescence, FDSS; host cell line not named in the record; reference of the full effect not given here; activation, % (concentration not given with the values); Q9GZU1; AID 624414; 410,000 tested, 0.12% active; in the data active = activation above about 50%; inconclusive = about 30% to 50%; inactive = below about 30%; also: 0% is about no effect; the text of the record puts the active cut at 80%
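Cells: TRPML1-DL, 1X Tet inducer, ~16 h at 37 degrees C/5% CO2. Dye: ABD Ca8 no-wash + quencher, 45-90 min RT. Read: 10 s baseline, compound add, 110 s agonist phase; 54-4 EC80 (4uM final), 110 s antagonist phase.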
CtBP-E1A inh = blocks the CtBP interaction with E1A | AID 651724 | 340,000 tested, 0.49% active | activity change, % (test concentration not listed) | AlphaScreen GST-E1A/His-CtBP binding, 1536-well; active compounds read low; control for the full effect not named in the record; in the data active means activity change below about -65%; inconclusive means about -30% to -65%; inactive means above about -30%; also: % is scaled to controls: 0 for no effect and ±100 for the full control effect
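Steps: dispense buffer (Tris pH 8.0, NaCl 300 mM, TCEP 1 mM, BSA, Tween 20); add 5X protein mix (GST-E1A, His-CtBP, 125 nM each); pin 23 nL compound; 2 h at 37 °C, dark; add 5X beads (50 ug/mL); 1 h; read.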
TRPML1 blocker = inhibitors of human TRPML1 channel; Q9GZU1; TRPML1-inducible cells, Ca2+ dye fluorescence, FDSS; active compounds read low; inhibition of EC80 agonist-evoked calcium signal; AID 624415; 390,000 tested, 0.02% active; activity change, negative = inhibition, % (no concentration beside the values); in the data active means activity change below about -50%; inconclusive means about -30% to -50%; inactive means above about -30%;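 also: stimulus is agonist 54-4 at its EC80 concentration; % is scaled to controls: 0 for no effect and ±100 for the full control effect; compound concentration not given in the record; the text of the record puts the active cut at -80%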
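Calcium fluorescence in TRPML1-DL cells induced overnight with Tet: a 110 s read after compound pin addition, then a 110 s antagonist read after challenge with 54-4 at 4 uM final (EC80).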
TRPV1 potentiator = potentiators of human vanilloid receptor 1 (TRPV1); potentiation, % at 8.33 µM; AID 540277; TRPV1-expressing cells, Fluo-8 calcium influx, capsaicin EC20 potentiation; host cell line not named in the record; control for the full effect not named in the record; 320,000 tested, 0.02% active; Q8NER1; active means potentiation above 80%; inconclusive means 30% to 80%; inactive means below 30%; also: 0% is about no effect
Target sequence (Q8NER1 whole entry, looked up): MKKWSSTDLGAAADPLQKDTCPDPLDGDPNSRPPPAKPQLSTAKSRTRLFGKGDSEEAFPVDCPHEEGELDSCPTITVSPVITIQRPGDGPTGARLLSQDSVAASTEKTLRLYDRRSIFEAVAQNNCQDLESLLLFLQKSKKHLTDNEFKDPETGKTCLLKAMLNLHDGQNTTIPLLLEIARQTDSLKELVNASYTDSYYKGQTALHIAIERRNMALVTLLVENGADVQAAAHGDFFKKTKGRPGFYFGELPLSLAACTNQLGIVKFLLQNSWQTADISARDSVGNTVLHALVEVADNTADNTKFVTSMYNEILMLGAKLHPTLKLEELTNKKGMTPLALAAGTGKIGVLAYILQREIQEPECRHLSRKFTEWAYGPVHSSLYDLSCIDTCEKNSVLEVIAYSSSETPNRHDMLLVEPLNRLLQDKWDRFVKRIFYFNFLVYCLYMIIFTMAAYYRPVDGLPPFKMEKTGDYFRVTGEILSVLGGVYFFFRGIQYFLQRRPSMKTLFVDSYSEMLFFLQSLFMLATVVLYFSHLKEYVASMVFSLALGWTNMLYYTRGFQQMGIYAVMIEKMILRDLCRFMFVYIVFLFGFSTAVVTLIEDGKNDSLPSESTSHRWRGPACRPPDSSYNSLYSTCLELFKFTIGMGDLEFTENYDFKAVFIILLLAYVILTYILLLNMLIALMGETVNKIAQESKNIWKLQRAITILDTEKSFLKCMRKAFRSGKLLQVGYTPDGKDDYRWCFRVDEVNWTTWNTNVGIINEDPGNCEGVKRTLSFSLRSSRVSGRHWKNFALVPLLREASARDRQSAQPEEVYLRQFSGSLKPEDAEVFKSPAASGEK
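Fluo-8 calcium influx in TRPV1-expressing cells, kinetic read (ex 480/em 520 nm). Compound added and read 3 min for agonist activity, followed by capsaicin at EC20 final and 2 min further read for enhancement.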
Six1-Eya2 blk = blocks human Six1 binding to Eya2. activity change, % (test concentration not listed). AlphaScreen GST-Six1/His-Eya2 binding, biochemical; active compounds read low; control for the full effect not named in the record. 360,000 tested, 0.56% active. Q15475+O00167; in the data active = activity change below about -65%; inconclusive = about -30% to -65%; inactive = above about -30%; also: % is scaled to controls: 0 for no effect and ±100 for the full control effect
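AlphaScreen luminescence read after one hour at 37 °C in darkness. Pin-transferred compounds met GST-Six1 and His-Eya2 protein (5X stock 250 nM/500 nM) plus glutathione donor and Ni-chelate acceptor beads (5X, 50 ug/mL).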
D2 PAM = potentiates the human D2 dopamine receptor allosterically | P14416 | DiscoveRx D2 beta-arrestin cells, luminescence, 90 min; 100% = 57 uM dopamine signal | potentiation, % (no concentration beside the values) | 360,000 tested, 0.23% active | AID 624464; active = potentiation of 50% or more; inconclusive = 30% to 50%; inactive = 30% or less;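 also: compound concentration not given in the record; tested on top of an EC20 dose of dopamine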
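PathHunter beta-arrestin assay in DiscoveRx D2 cells. Compounds were added with an EC20 of dopamine (50 nM final) for 90 min at 37 deg C. Luminescence was read 1 h after detection reagent, with 57 uM dopamine as the EC100 control.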
Numbers without * were called inactive; & = joins results of further samples.

Results for CC1CCC2(CC1)NC(=O)N(CC(=O)c1cccn1C)C2=O (stereo not drawn) ?
TRPML1 ag: -0.3; CtBP-E1A inh: -1; TRPML1 blocker: 92; TRPV1 potentiator: 5; Six1-Eya2 blk: -1; D2 PAM: -1

How did CCOC(=O)CN1C(=O)S/C(=C/c2ccc(OC)c([N+](=O)[O-])c2)C1=O do in these assays?
TRPML1 ag: 0.2; CtBP-E1A inh: 2; TRPML1 blocker: -5; TRPV1 potentiator: -1; Six1-Eya2 blk: 0; D2 PAM: -6

What do the screens show for `O=C(CCc1ccccc1)Nc1cc(NC(=O)CCc2ccccc2)cc(C(=O)O)c1`?
TRPML1 ag: 0.4; CtBP-E1A inh: -1; TRPML1 blocker: 15; TRPV1 potentiator: 4; Six1-Eya2 blk: 3; D2 PAM: -6

Results for O=c1/c(=C/c2ccc([N+](=O)[O-])cc2)sc2n1CCCN=2 ?
TRPML1 ag: -0.2; CtBP-E1A inh: -3; TRPML1 blocker: 10; TRPV1 potentiator: 9; Six1-Eya2 blk: -8; D2 PAM: inconclusive

Results for COc1ccc(/C=C/C(=O)N2CCN(c3ccccn3)CC2)cc1 ?
TRPML1 ag: 1.1; CtBP-E1A inh: -1; TRPML1 blocker: 32; TRPV1 potentiator: -18; Six1-Eya2 blk: -2; D2 PAM: -1

How did CC(C)CC(=O)N1CCN(Cc2ccc(Br)cc2)CC1 do in these assays?
TRPML1 ag: -0.7; CtBP-E1A inh: 13; TRPML1 blocker: -8; TRPV1 potentiator: 3; Six1-Eya2 blk: 13; D2 PAM: -5

What do the screens show for `Fc1ccccc1NC(=S)Nc1ccc(CN2CCOCC2)cc1`?
TRPML1 ag: 0.7; CtBP-E1A inh: 5; TRPML1 blocker: 1; TRPV1 potentiator: -2; Six1-Eya2 blk: 4; D2 PAM: -9

What do the screens show for `O=C(Cn1cc(C(F)(F)F)ccc1=O)NCCc1ccc(Cl)cc1Cl`?
TRPML1 ag: 1.3; CtBP-E1A inh: 8; TRPML1 blocker: -3; TRPV1 potentiator: -3; Six1-Eya2 blk: -2; D2 PAM: -12

What do the screens show for `c1ccc(N2CCN(c3nccn4ccnc34)CC2)nc1`?
TRPML1 ag: -0.9; CtBP-E1A inh: -27; Six1-Eya2 blk: -10; D2 PAM: -6

Results for COc1ccc(OC)c(-n2c(-c3ccn[nH]3)n[nH]c2=S)c1 ?
TRPML1 ag: 1.0; CtBP-E1A inh: -2; TRPML1 blocker: 0; TRPV1 potentiator: -13; Six1-Eya2 blk: -9; D2 PAM: 2

Results for COc1cc(/C=C2/C(=O)ON=C2C)ccc1OCc1cccc(F)c1 ?
TRPML1 ag: 2.2; CtBP-E1A inh: -1; TRPML1 blocker: -3; TRPV1 potentiator: 0; Six1-Eya2 blk: 7; D2 PAM: -10

How did COc1cccc(CNC(=O)c2ccccc2NC(=O)C2=C(C)OCCS2)c1OC do in these assays?
TRPML1 ag: 1.1; CtBP-E1A inh: inconclusive; TRPML1 blocker: -6; TRPV1 potentiator: 2; Six1-Eya2 blk: -4; D2 PAM: -6

What do the screens show for `O=C(COC(=O)CCc1ccccc1)NCc1ccccc1`?
TRPML1 ag: -0.5; TRPML1 blocker: 5; TRPV1 potentiator: -13; Six1-Eya2 blk: 2; D2 PAM: 3

Results for Cc1cccn2c(=O)c(C=O)c(N3CCC4(CC3)OCCO4)nc12 ?
TRPML1 ag: -0.1; CtBP-E1A inh: 9; TRPML1 blocker: -8; TRPV1 potentiator: 8; Six1-Eya2 blk: 5; D2 PAM: -3

What do the screens show for `CC(=O)N1CCc2cc(S(=O)(=O)CCC(=O)N(C)c3cc(C)ccc3C)ccc21`?
TRPML1 ag: 0.2; CtBP-E1A inh: -3; TRPML1 blocker: -11; TRPV1 potentiator: -6; Six1-Eya2 blk: -1; D2 PAM: -3

What do the screens show for `COc1cccc(CN2CCN(c3cccc(C(F)(F)F)c3)CC2)c1OC`?
TRPML1 ag: 2.3; CtBP-E1A inh: -13; TRPML1 blocker: -6; TRPV1 potentiator: 7; Six1-Eya2 blk: -3; D2 PAM: -16

How did Cc1noc2ncnc(N3CCCC3)c12 do in these assays?
TRPML1 ag: -0.4; CtBP-E1A inh: 9; TRPML1 blocker: -12; TRPV1 potentiator: 0; Six1-Eya2 blk: -4; D2 PAM: -4

Results for COc1ccc(-c2cc(C(=O)OCC(=O)N(C)C3CCS(=O)(=O)C3)c3ccccc3n2)cc1OC (stereo not drawn) ?
TRPML1 ag: 0.6; CtBP-E1A inh: 0; TRPML1 blocker: 1; TRPV1 potentiator: -7; Six1-Eya2 blk: -7; D2 PAM: 2

How did CC1(C)CC2(C)OCCN2C(=S)N1 (stereo not drawn) do in these assays?
TRPML1 ag: 0.0&-0.3; CtBP-E1A inh: 2&4; TRPML1 blocker: 10&-5; TRPV1 potentiator: -1; Six1-Eya2 blk: 4&-3; D2 PAM: -8&-7

How did Cc1cc(C(=O)N/N=C2/CC(C)CC(C)(C)C2)c(C)o1 (stereo not drawn) do in these assays?
TRPML1 ag: -0.3; CtBP-E1A inh: 7; TRPML1 blocker: -4; TRPV1 potentiator: -6; Six1-Eya2 blk: 14; D2 PAM: -2

3 neighbouring entries from above, quoted:
Results for CC1CCC2(CC1)NC(=O)N(CC(=O)c1cccn1C)C2=O (stereo not drawn) ?
TRPML1 ag: -0.3; CtBP-E1A inh: -1; TRPML1 blocker: 92; TRPV1 potentiator: 5; Six1-Eya2 blk: -1; D2 PAM: -1

How did CCOC(=O)CN1C(=O)S/C(=C/c2ccc(OC)c([N+](=O)[O-])c2)C1=O do in these assays?
TRPML1 ag: 0.2; CtBP-E1A inh: 2; TRPML1 blocker: -5; TRPV1 potentiator: -1; Six1-Eya2 blk: 0; D2 PAM: -6

What do the screens show for `O=C(CCc1ccccc1)Nc1cc(NC(=O)CCc2ccccc2)cc(C(=O)O)c1`?
TRPML1 ag: 0.4; CtBP-E1A inh: -1; TRPML1 blocker: 15; TRPV1 potentiator: 4; Six1-Eya2 blk: 3; D2 PAM: -6

Remaining list, next part:
Results for CCO[C@H]1OC(C(=O)N2CCN(Cc3ccccc3)CC2)=C[C@@H](C)[C@@H]1CCCO ?
TRPML1 ag: -0.5; CtBP-E1A inh: 4; TRPML1 blocker: 0; TRPV1 potentiator: 27; Six1-Eya2 blk: 6; D2 PAM: -8

Results for COc1ccccc1CNC(=O)c1ccc(Cl)c(S(=O)(=O)N2CCCC2)c1 ?
TRPML1 ag: 2.1; CtBP-E1A inh: 0; TRPML1 blocker: 45; Six1-Eya2 blk: -4; D2 PAM: 2

How did N#C/C(=C/c1ccc(-c2ccc(C(=O)O)c(Cl)c2)o1)C(=O)NCC1CCCO1 (stereo not drawn) do in these assays?
TRPML1 ag: 0.0; CtBP-E1A inh: -11; TRPML1 blocker: -2; TRPV1 potentiator: -17; Six1-Eya2 blk: -11; D2 PAM: -2

What do the screens show for `O=C(Cc1ccccc1Cl)Nc1cc(S(=O)(=O)N2CCOCC2)ccc1N1CCOCC1`?
TRPML1 ag: 2.0; CtBP-E1A inh: 2; TRPML1 blocker: 26; TRPV1 potentiator: -6; Six1-Eya2 blk: 3; D2 PAM: 1

Results for COc1ccc(OC)c(-n2c(SCC(=O)Nc3cc(C)on3)nnc2-c2c[nH]c3ccccc23)c1 ?
TRPML1 ag: -0.4; CtBP-E1A inh: -9; TRPML1 blocker: -7; TRPV1 potentiator: 14; Six1-Eya2 blk: -2; D2 PAM: -8

What do the screens show for `CCc1cccc(CC)c1NC(=O)CO/N=C(\N)CC(=O)NC1CCCCC1`?
CtBP-E1A inh: 14; TRPV1 potentiator: 5; Six1-Eya2 blk: 3; D2 PAM: -2

Results for CCCOc1ccc(C(F)(F)F)cc1NC(=O)CN1C(=O)C(=O)N(CC)C1=O ?
TRPML1 ag: 0.8; CtBP-E1A inh: 9; TRPML1 blocker: 8; TRPV1 potentiator: -4; Six1-Eya2 blk: -3; D2 PAM: -15

How did Cc1cccc(CNC(=O)Nc2nnc([C@H]3C[C@H](O)[C@@H](CO)O3)s2)c1 do in these assays?
TRPML1 ag: -0.2; CtBP-E1A inh: 1; Six1-Eya2 blk: -6; D2 PAM: -2

Results for COCCCNc1nc2c(c(=O)n(C)c(=O)n2C)n1Cc1cccc(OC)c1 ?
TRPML1 ag: -0.2; CtBP-E1A inh: 0; TRPML1 blocker: 8; TRPV1 potentiator: -12; Six1-Eya2 blk: 3; D2 PAM: -9

What do the screens show for `O=C(N/N=C/c1ccccc1O)C1CC(=O)N(c2ccc(F)cc2)C1` (stereo not drawn)?
TRPML1 ag: -0.3; CtBP-E1A inh: inconclusive; TRPML1 blocker: -4; TRPV1 potentiator: 9; Six1-Eya2 blk: -70*; D2 PAM: -16

What do the screens show for `Cc1cccc(NC(=O)CCc2ccc(C)o2)c1`?
TRPML1 ag: 0.8; CtBP-E1A inh: 2; TRPML1 blocker: -2; TRPV1 potentiator: -7; Six1-Eya2 blk: -7; D2 PAM: 12

What do the screens show for `Cc1cc(C(=O)Nc2ccccn2)cs1`?
TRPML1 ag: -0.1; CtBP-E1A inh: 4; TRPML1 blocker: -1; TRPV1 potentiator: -25; Six1-Eya2 blk: 0; D2 PAM: -4

How did O=C(O/N=C1\CCS(=O)(=O)c2sccc21)c1ccc(F)cc1 do in these assays?
TRPML1 ag: 0.2; TRPML1 blocker: 10; TRPV1 potentiator: -12; Six1-Eya2 blk: 6; D2 PAM: -6

What do the screens show for `CCOC(=O)c1[nH]cnc1C(=O)Nc1cccc(Cl)c1`?
TRPML1 ag: 0.2; CtBP-E1A inh: 2; TRPML1 blocker: 7; TRPV1 potentiator: -20; Six1-Eya2 blk: 6; D2 PAM: -4

What do the screens show for `O=C(NCc1ccco1)C1CCN(S(=O)(=O)c2cccc([N+](=O)[O-])c2)CC1`?
TRPML1 ag: 0.3; CtBP-E1A inh: 3; TRPML1 blocker: 4; TRPV1 potentiator: 0; Six1-Eya2 blk: 3; D2 PAM: 1

How did CCOC(=O)c1nn(-c2ccccc2)c(=O)cc1OCC(=O)Nc1cc(C)ccc1C do in these assays?
TRPML1 ag: 0.5; CtBP-E1A inh: 6; TRPML1 blocker: 2; TRPV1 potentiator: -3; Six1-Eya2 blk: 1; D2 PAM: -7

What do the screens show for `CNC(=O)COC(=O)/C=C/c1ccco1`?
TRPML1 ag: 0.2; TRPML1 blocker: -26; TRPV1 potentiator: 7; Six1-Eya2 blk: 14; D2 PAM: -6

What do the screens show for `C=C(C)Cn1c2ccc(NC(=O)NCc3ccc(F)cc3)cc2c(=O)n1C`?
TRPML1 ag: -0.6; CtBP-E1A inh: 1; Six1-Eya2 blk: -3; D2 PAM: 1

How did O=C(CSc1nc(-c2ccccc2)cs1)NCCN1C(=O)CSC1=O do in these assays?
TRPML1 ag: 1.4; CtBP-E1A inh: 3; TRPML1 blocker: 26; TRPV1 potentiator: 15; Six1-Eya2 blk: 9; D2 PAM: -3

What do the screens show for `Cc1cc(=O)[nH]c(SCc2ccccc2)n1`?
TRPML1 ag: 1.4; CtBP-E1A inh: -8; TRPML1 blocker: -13; TRPV1 potentiator: -7; Six1-Eya2 blk: 7; D2 PAM: 1

How did O=C(O)/C=C/C(=O)Nc1ccc(C(=O)c2ccccc2)cc1 do in these assays?
TRPML1 ag: 0.4; CtBP-E1A inh: -6; TRPML1 blocker: 0; TRPV1 potentiator: -8; Six1-Eya2 blk: -1; D2 PAM: -5
